NPYLR7 agonist = activates Aedes aegypti NPYLR7 receptor. AID 1259423. activation, % at 10 µM. HEK293T NPYLR7/Galpha15, GCaMP6s calcium fluorescence. 270,000 tested, 0.15% active; in the data active = activation above about 40%;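 also: 0% = vehicle and 100% = reference agonist at the receptor; some compounds past the cut are filed as inactive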
NPYLR7 agonist max-min = also measured in NPYLR7 agonist; calls as there; activation, %; measured here: Max-Min RFU normalised activation; some inactives read as strong as hits;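 span of the calcium signal over five minutes; 0% = vehicle and 100% = native peptide agonist; compound fluorescence can raise it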
* hit, by the source's call; & = joins results of further samples.

SMILES	NPYLR7 agonist	NPYLR7 agonist max-min
CC(=O)N1CCC(N2CCN([C@@H]3C[C@H]4C[C@@H](c5ccccc5)OC[C@@]4(C)C3)CC2)CC1	-5	1
O=C(c1ccc2cc[nH]c2c1)N1C[C@H]2C[C@H](O)[C@@H](O)C[C@H]2C1	8	5
CC(C)c1ccc(C2=NC(C)(CC(=O)N3CCCC3)ON2C)cc1 (configuration not stated)	7	2
OC(Cc1ccccc1)CN(Cc1c(-c2ccccc2)noc1N1CCCC1)CC1CCCO1 (configuration not stated)	10	14
COCCCn1c(NC(=O)Nc2ccc(OC)cc2)c2ccccc2nc1=O	7	5
Cc1cccc(N(C)C(=O)c2ccc(N3CCOCC3)c(F)c2)c1C	12	9
O=C(CC(NCCOCCO)C(=O)O)Nc1ccc2ccccc2c1 (configuration not stated)	-6	-6
CC(=Cc1ccco1)C1Nc2cccc3cccc(c23)N1	-1	-2
COCCNC(=O)c1cccc(CSc2nc(-c3ccccc3)cc(N(C)CCc3ccc(OC)c(OC)c3)n2)c1	15	16
CCc1c(C)nc(-n2nc(C)cc2C)n(CC(=O)N2CCCc3ccccc32)c1=O	0	-2
Nc1ccnc(N2CC(c3cccnc3)C2)n1	30	14
O=C(NCc1nnc2n1CCC2)c1ccc(N2CCOCC2)nc1	7	4
COc1ccc(S(=O)(=O)N2CCC(c3c[nH]c4ccc(F)cc34)CC2)cc1OC	18	35
c1ccc(N=c2scc(-c3ccccc3)n2N2CCOCC2)cc1	-4	-7
Cc1cc(=O)[nH]c(N/N=C\c2ccc(Cl)cc2Cl)n1	-6	-13
Nc1cc(-c2cccc(C(F)(F)F)c2)nn1-c1ccc(C(=O)NCCc2cccc(Cl)c2)cc1	-14	-24
Cn1cccc1-c1cc(C(=O)NCc2nnc3n2CCCCC3)[nH]n1	-6	-7
O=C(NC1CCCCC1)c1nn2c(C(F)(F)F)cc(-c3ccc(Br)cc3)nc2c1Cl	2	3
Cc1ccc(CNC(=O)c2cn(C3CCCC3)c(=O)c3c2c2ccccc2n3C)o1	-5	-7
Cc1ccccc1C(=O)Nc1cc(Br)c(O)c(Br)c1	5	10
C=CCNC(=O)N1CCN(C(C(=O)N2CCOCC2)C2CCCC2)CC1 (configuration not stated)	-5	-4
CCCN(CC(=O)N(CCc1c[nH]c2ccccc12)Cc1ccc(OC)cc1)C(=O)Nc1ccc(C)cc1C	2	-5
CN1CCN(C(=O)CCN2C(=O)/C(=C/c3ccccc3Cl)SC2=S)CC1	11	11
CCCNc1ncc(-c2nccn2-c2cccc(-n3cnnn3)c2)cn1	7	2
CN1CCC(C)(C(=O)Nc2ccc3scnc3c2)C1 (configuration not stated)	0	0
CN(CCCNC(=O)N1CCS(=O)(=O)CC1)c1ccccc1F	3	2
Clc1ccccc1-c1nc(NCCN2CCOCC2)c2ccccc2n1	5	7
Cc1ccc(S(=O)(=O)Cc2nc(-c3cc(C)n(C)c3C)cs2)cc1	3	2
C[C@H](NC(=O)[C@@H](C)N1Cc2ccc(Nc3ncccn3)nc2C1=O)c1ccccc1	6	0
C=CCN(CC(=O)N1CCc2sccc2C1c1ccc(Cl)cc1)C(=O)COc1ccc(Cl)cc1 (configuration not stated)	-2	6
S=c1[nH]nc(-c2cccnc2)o1	-6	-9
CC1CCc2c(sc(NC(=O)c3nn4c(C(F)(F)F)cc(-c5ccccc5)nc4c3Cl)c2C#N)C1 (configuration not stated)	1	-10
COc1ccc(C2CC(c3ccc(Cl)cc3)=Nc3ncnn32)c(OC)c1 (configuration not stated)	8	10
CC(C)(C)c1cc2nc(C(=O)N3CCc4ccccc4C3)cc(-c3ccccc3F)n2n1	-13	-7
CC(C)Cc1ccc(C(NCC(=O)N(C)C2CCS(=O)(=O)C2)C(C)C)cc1 (configuration not stated)	1	-3
O=C(Cc1ccccc1F)Nc1nc2ccccc2o1	-5	-3
COc1cc(C(=O)N=Nc2c(O)n(C)c3ccccc23)cc(OC)c1OC	10&3	9&-9
COc1ccc(C(=O)N2CCN(C(=O)CCCCSc3nnc(Cc4ccccc4)n3-c3ccc(C)cc3)CC2C)c(OC)c1 (configuration not stated)	-5	1
Cc1nc2c(c(NCc3ccc4c(c3)CCCO4)n1)CNC2	4	5
CN(Cc1ccccc1)C(=O)Nc1cn(C)c2ccccc12	0	-9
Cc1cc(C(=O)NCCn2nc(-c3ccccc3)n(C)c2=O)no1	-2	-4
O=C(O)c1ccc2c(c1)-c1cc(C(=O)O)ccc1S2(=O)=O	-2	-5
Cc1nn(-c2ccc(F)cc2)c2nc(CCC(C)C)nc(N3CCCN(C(=O)Nc4ccc(Cl)cc4)CC3)c12	8	4
Cc1ccc2occ(-c3nn[nH]n3)c(=O)c2c1	-4	-10
CC(C)CCNC(=O)CC1Sc2ccc(C(F)(F)F)cc2NC1=O (configuration not stated)	5	-2
CC1CCc2c(sc(NC(=O)c3cc4nc(-c5ccccc5)cc(C(F)(F)F)n4n3)c2C#N)C1 (configuration not stated)	-23	-26
CN(C(=O)CCCS(C)(=O)=O)c1ccc(-c2ccccc2)cc1	0	-7
CC(CN1CCN(C)CC1)NC(=O)N1CCCC(C)(C)CC1 (configuration not stated)	0	0
FC(F)(F)CCc1ccnc(NCc2cnn3ccccc23)n1	5	3
CCN(Cc1cccc(F)c1)S(=O)(=O)N(C)Cc1cnn(C)c1	1	-1
Continued:
SMILES	NPYLR7 agonist	NPYLR7 agonist max-min
COc1cc2c(cc1OC)C(c1ccccc1C(=O)O)=NCC2	2	0
COc1cccc(-c2cc(C(=O)N3CCN(C(C)=O)CC3)n3nc(-c4ccccc4)cc3n2)c1	6&19	10&24
CC(C)(C)c1ccc(C(=O)N2CCSC2c2ccc3c(c2)OCO3)cc1 (configuration not stated)	-5	-4
CCCCC(CC)CN1CNC(=S)NC1 (configuration not stated)	2	-1
CCOC(=O)CCNC(=O)c1ccc2oc(-c3cccc(F)c3)nc2c1	-3	-7
O=C(Cn1nc(C2CC2)c2cnn(-c3ccccc3)c2c1=O)N1CCc2ccccc21	6	3
O=[N+]([O-])c1ccc(-c2ccc(-c3csc(Nc4ccccn4)n3)o2)c(Cl)c1	-4	-7
O=c1c2cc(Br)ccc2nc(-c2ccccc2I)n1Cc1ccccc1	6	4
CC(C)c1c(C(=O)O)cnn1-c1ccc(C(F)(F)F)cn1	0	-1
CCc1nc2n(n1)C(=O)C(C(c1cccc(C(F)(F)F)c1)N1CCC(C(=O)OC)CC1)S2 (configuration not stated)	-2	0

Nothing new here: entries from further up.
SMILES	NPYLR7 agonist	NPYLR7 agonist max-min
CC1CCc2c(sc(NC(=O)c3cc4nc(-c5ccccc5)cc(C(F)(F)F)n4n3)c2C#N)C1 (configuration not stated)	-23	-26
CN(C(=O)CCCS(C)(=O)=O)c1ccc(-c2ccccc2)cc1	0	-7
CC(CN1CCN(C)CC1)NC(=O)N1CCCC(C)(C)CC1 (configuration not stated)	0	0
FC(F)(F)CCc1ccnc(NCc2cnn3ccccc23)n1	5	3
CCN(Cc1cccc(F)c1)S(=O)(=O)N(C)Cc1cnn(C)c1	1	-1
COc1cc2c(cc1OC)C(c1ccccc1C(=O)O)=NCC2	2	0
COc1cccc(-c2cc(C(=O)N3CCN(C(C)=O)CC3)n3nc(-c4ccccc4)cc3n2)c1	6&19	10&24
CC(C)(C)c1ccc(C(=O)N2CCSC2c2ccc3c(c2)OCO3)cc1 (configuration not stated)	-5	-4
CCCCC(CC)CN1CNC(=S)NC1 (configuration not stated)	2	-1
CCOC(=O)CCNC(=O)c1ccc2oc(-c3cccc(F)c3)nc2c1	-3	-7
O=C(Cn1nc(C2CC2)c2cnn(-c3ccccc3)c2c1=O)N1CCc2ccccc21	6	3
O=[N+]([O-])c1ccc(-c2ccc(-c3csc(Nc4ccccn4)n3)o2)c(Cl)c1	-4	-7
O=c1c2cc(Br)ccc2nc(-c2ccccc2I)n1Cc1ccccc1	6	4
CC(C)c1c(C(=O)O)cnn1-c1ccc(C(F)(F)F)cn1	0	-1
CCc1nc2n(n1)C(=O)C(C(c1cccc(C(F)(F)F)c1)N1CCC(C(=O)OC)CC1)S2 (configuration not stated)	-2	0

Following part:
SMILES	NPYLR7 agonist	NPYLR7 agonist max-min
CCCCNC(=S)NC1CCC(NC(=S)NCCCC)CC1 (configuration not stated)	3	3
Cc1csc(SCCCn2c(=O)c3c(ncn3C)n(C)c2=O)n1	18	11
NC(=O)C1CCN(c2ccc3cccc(OCc4ccc(Br)cc4)c3n2)CC1	7	5
COc1ccc(-c2nc(CN(C)Cc3ccco3)co2)cc1	6	3
CC1CCCN(S(=O)(=O)CCN2C(=O)NC(C)(C)C2=O)C1 (configuration not stated)	12	7
O=C(NN=Cc1ccc(O)cc1)c1cc(C23CC4CC(CC(C4)C2)C3)[nH]n1	3	3
O=C1CC(c2nc3cc(F)c(F)cc3c(=O)[nH]2)CN1CC1CCC1 (configuration not stated)	-5	-6
O=C(NNC(=O)c1cccs1)c1ccc(=O)n(Cc2ccc(Cl)cc2)c1	-6	-13
CCN(CC)S(=O)(=O)c1ccc(O)c(NC(=O)CC(C)C)c1	-2	-2
Cc1sc2nc(SC(C)C(=O)NC3CC3)[nH]c(=O)c2c1-c1ccc(F)cc1 (configuration not stated)	1	0
O=C(CCS(=O)(=O)c1ccccc1)N(CCn1cccn1)c1nc2ccccc2s1	-22	-20
Cc1cc(C)c(S(=O)(=O)N2CCC3(CC2)OCCO3)c(C)c1	2	-2
CC(=O)N1N=C(c2ccc(Br)cc2)CC1c1ccccc1F (configuration not stated)	6	4
Cc1cc(Cc2ccc(S(=O)(=O)Nc3ccccc3C(C)C)cc2)c(=O)[nH]n1	0	-2
CCOC(=O)C1=C(C)N(C)C(=O)NC1c1ccc(F)cc1 (configuration not stated)	-6	10
COc1ccc(N2CCN(c3cc(C(C)(C)C)nc(SCc4ccc(C(=O)NCC5CC5)cc4)n3)CC2)cc1	1	6
O=C1/C(=C/c2ccc(-c3ccc(Br)cc3)o2)C=C(c2ccccc2)N1c1ccc(Cl)cc1Cl	-2	3
Cc1ccc(CN(CCc2ccccc2)C(=O)CN(Cc2cccc(F)c2F)C2CC2)o1	6	12
COc1cc(C)c(Br)cc1S(=O)(=O)N(C)C	0	10
CCOC(=O)c1sc(N=Nc2c(O)[nH]c(=S)[nH]c2=O)c(C(=O)OCC)c1C	3	4
O=C1c2ccccc2C(=O)c2c1cccc2[N+](=O)[O-]	-4	-10
Cc1noc(C)c1CCC(=O)N1CCN(CC2CCCO2)CC1 (configuration not stated)	8	14
CC(NC(=O)c1sccc1-n1cnnn1)c1ccc(OC(F)F)cc1 (configuration not stated)	0	6
COc1ccc(-c2cccc(Cl)c2Cl)nn1	2	1
Cc1cc(C=CC(=O)O)c(C)n1C1CCCCC1	-2	-6
Cc1ccc2oc(C(=O)N3CCCN(c4nc5ccccc5s4)CC3)c(C)c2c1	2	-3
CCCc1[nH]n(C)c(=O)c1C1=C(N2CCCCC2)C(=O)N(c2ccc(OC)cc2OC)C1=O	11	15
COc1ccccc1-n1c(=C(C#N)C#N)sc(=Cc2ccccc2F)c1=O	31	30
CCN(Cc1ccncc1)C(=O)CC(=O)Nc1cccc(Cl)c1C	-2	-5
CCCCC1=NC2(CCN(C(=O)c3cc(C)nn3CC)CC2)C(=O)N1	4	2
O=C1NC(C(=O)O)=CC(c2ccc(F)cc2F)N1 (configuration not stated)	0	-1
O=C(NC1CC1)C1CCN(C2CCN(Cc3cccc4nonc34)CC2)CC1	17	13
O=C(CC1C(=O)NCCN1Cc1cccc(C(F)(F)F)c1)NCCc1cnccn1 (configuration not stated)	12	2
O=C(NC1CCS(=O)(=O)C1)c1ccc(Br)o1 (configuration not stated)	-2	-2
CCSCCN1CCC2(CC1)Nc1ccccc1C(=O)N2CC(C)C	-1	27
O=c1c2nnn(-c3ccc(Br)cc3)c2ncn1Cc1cccc(C(F)(F)F)c1	-3	-6
O=S(=O)(NCc1cccc(Cl)c1)c1ccccc1Cl	-9	-9
COc1cccc(-n2nc(C(=O)NC3CC3)c(=O)n(Cc3cccc(C)c3)c2=O)c1	-7	-1
O=C(NCCCN1CCOCC1)C(C1CCCC1)N1CCN(C(=O)c2cccc(Br)c2)CC1 (configuration not stated)	-7	1
COCCOCC(=O)N1CCC(n2cnc3ccc(F)cc32)CC1	7	13
COc1ccc(CC(=O)NC(C)c2cccs2)cc1F (configuration not stated)	-3	-3
CCCNC(=O)C1(C)CCCN(Cc2sc(C)nc2C)C1 (configuration not stated)	1	1
COc1cc2c(cc1OC)C(c1ccccc1)N(C(=O)c1ccc(-c3cccc(Cl)c3)s1)CC2 (configuration not stated)	1	10
CCC(CC)NC(=O)CSc1nnc(Cc2csc(C)n2)o1	1	3
CCOC(=O)Oc1cc2oc(=O)sc2cc1Br	4	2
Cc1ccc2nc(CN(C)c3cc(N(C)C)ncn3)[nH]c2c1	1	-2
Cc1ccccc1C1(O)CCN(Cc2ccnc(C(C)C)n2)C1 (configuration not stated)	19	17
CC1(C)OCC(CCOC(=O)c2cccc(NC(N)=O)c2)O1 (configuration not stated)	1	1
CCc1c(C)nc(-c2cccc(F)c2)nc1N1CCN(C(=O)C2CC2)CC1	17	21
COc1ncccc1CNC(=O)N1CCC(Cc2ccccc2)CC1	-3	-1
Other records
SMILES	NPYLR7 agonist	NPYLR7 agonist max-min
Cc1cccc(N(C)CC(=O)c2c[nH]c(C(=O)N3CCCC3)c2)c1C	-2	-3
COCc1nc(C)cc(N(C)C2CCCC2c2ccc(C)cc2)n1 (configuration not stated)	2	2
COc1ccc(C23CC4CC(CC(C(=O)NC5CC5)(C4)C2)C3)cc1	1	-1
Cc1cccnc1C(NC(=O)COCc1ccccc1)C(C)C (configuration not stated)	-1	9
COc1ccc(-c2cc3c(n(C)c2=O)CCN(C(=O)c2cc(C(F)(F)F)[nH]n2)C3)c2ccc(C)nc12	21	12
COCCNC(=O)C1=CC(c2ccco2)=NS(=O)(=O)N1C	2	-4
CCN1C(=O)C2C(C)NC3(C(=O)Nc4ccccc43)C2C1=O (configuration not stated)	2	-2
Cc1c(CCNC(=O)c2ccc(F)cc2)sc2nc(-c3ccc(F)cc3)nn12	2	0
Cc1csc(CN(C)C(=O)c2nn(-c3ccccc3)cc2O)n1	-7	-8
COc1ccc(CNC(=O)CCC2CCCN(C(=O)CN3CCOC3=O)C2)c(OC)c1 (configuration not stated)	1	-2

Screens (PubChem BioAssay)

This is a subset. The share of hits here may be higher or lower than overall.
